# Vaccinia mCherry: inhibitors of vaccinia virus infection (mCherry reporter signal); AID 720579; Vaccinia virus mCherry reporter infection, fluorescence; about a quarter of the inactives have no number; Potency, µM (doses to about 36.5 µM), without a hit: top-dose activity change, negative = inhibition, actives largely listed as inhibitors; 310,000 compounds, 0.63% hits; active = well fitted inhibition curve with a large enough effect; inconclusive = small, poorly fitted or top-dose-only effect; inactive = no such curve, though single readings can be large or run the other way; tested in A549 cells; note: nearly all actives have a fitted effect of over 35% in size; inactives centre near -10
# VACV Venus inh: inhibitors of vaccinia virus (Venus reporter). Potency, µM (top dose mostly 36.5 µM), for the others: at the highest dose activity change, negative = inhibition, hits mostly inhibitors. Vaccinia virus Venus reporter expression, fluorescence. 330,000 compounds, 0.46% hits. AID 720580; active means well fitted inhibition curve with a large enough effect; inconclusive means small, poorly fitted or top-dose-only effect; inactive means no such curve, though single readings can be large or run the other way; tested in A549 cells; note: nearly all actives have a fitted effect of over 30% in size; inactives centre near -10
# * hit, by the source's call; i = inactive; ? = inconclusive; . = not tested or not shown; & = joins results of further samples; [ ] = dose if it differs, or a comment. % is set by controls: 0 for no effect and ±100 for the full control effect; potency is the fitted concentration of half-maximal effect.
COc1ccc(CCNC(=O)C/C(C)=N/NC(=O)C(c2ccccc2)c2ccccc2)cc1OC
  Vaccinia mCherry: -1.3% | VACV Venus inh: -11.6%

COc1cccc(OCC(O)CN2C(C)CCCC2C)c1 (configuration not stated)
  Vaccinia mCherry: -10.9% | VACV Venus inh: -14.1%

O=C(Nc1nnc(-c2ccccn2)o1)c1ccc(Br)cc1
  Vaccinia mCherry: i | VACV Venus inh: -13.3%

COc1cccc(CNC(=O)C2CC(=O)N(c3ccc4c(c3)OCCO4)C2)c1 (configuration not stated)
  Vaccinia mCherry: -14.0% | VACV Venus inh: -18.8%

O=C(N/N=C(\Cc1ncc[nH]1)c1ccccc1)c1cccnc1
  Vaccinia mCherry: 11.2µM* | VACV Venus inh: ?

CC(=O)CSc1nc(-c2ccccc2)[nH]c1S(=O)(=O)c1ccc(C)cc1
  Vaccinia mCherry: -2.7% | VACV Venus inh: -3.2%

O=S(=O)(c1ccc(Br)cc1Cl)N1CCCN(c2ccc(C(F)(F)F)cn2)CC1
  Vaccinia mCherry: -15.0% | VACV Venus inh: -17.8%

COc1ccc(CNC(=O)CC2C[C@H](C(=O)N3CCOCC3)[C@@]3(CCC4CCCC4)c4[nH]c5ccccc5c4CCN3C2=O)cc1OC (some centres not stated)
  Vaccinia mCherry: -10.2% | VACV Venus inh: -13.3%

O=C(NCC(F)(F)F)c1cc2c(c(-c3cccc(-c4ccccc4F)c3)n1)[C@@H](CCO)N(C(=O)CC1CC1)C2
  Vaccinia mCherry: -25.2% | VACV Venus inh: -13.1%

COc1ccc(N2CCN(CCCNC(=O)C3COc4ccccc4C3)CC2)cc1 (configuration not stated)
  Vaccinia mCherry: -11.2%[7.34 µM] | VACV Venus inh: -9.7%[7.34 µM]

CN1CCc2cc(Cl)c(O)cc2[C@@H](c2ccccc2)C1
  Vaccinia mCherry: -13.5% | VACV Venus inh: -13.2%&-4.3%

CC(=O)c1c(N2CCN(C)CC2)[nH]c(-c2ccccc2)nc1=S
  Vaccinia mCherry: -5.3% | VACV Venus inh: 3.6%

CN1CCN(CC#CCC(O)(c2ccccc2)C2CCCC2)CC1 (configuration not stated)
  Vaccinia mCherry: . | VACV Venus inh: -8.4%

Cc1ccccc1CN1CCNC(=O)C1CC(=O)NCCN1CCCCC1=O (configuration not stated)
  Vaccinia mCherry: i | VACV Venus inh: -15.5%

Cc1ccc(Sc2ccc([N+](=O)[O-])cc2[N+](=O)[O-])nc1
  Vaccinia mCherry: ? | VACV Venus inh: -24.7%

COc1ccc(Cc2nnc(SC(C)C(=O)Nc3ccc(F)cc3Cl)o2)cc1 (configuration not stated)
  Vaccinia mCherry: -17.4% | VACV Venus inh: -5.6%

O=C(c1cccc(C(F)(F)F)c1)C1CCCN(Cc2ccc(OCCO)cc2)C1 (configuration not stated)
  Vaccinia mCherry: -23.7% | VACV Venus inh: -11.9%

C=CCOc1nc2c(c(=O)n(Cc3ccc(Cl)cc3)c(=O)n2C)n1C
  Vaccinia mCherry: -7.0%[1.46 µM] | VACV Venus inh: -9.4%

Cc1ccc(-c2nc(CN(Cc3c(C)nn(C)c3C)C(C)C)c(C)o2)o1
  Vaccinia mCherry: -12.9% | VACV Venus inh: -0.6%

N#Cc1ccsc1NC(=O)C1CCN(S(=O)(=O)c2cccs2)CC1
  Vaccinia mCherry: -11.1% | VACV Venus inh: -10.0%

# Some of the entries so far, with values under each structure.
# Values run as follows: Vaccinia mCherry, VACV Venus inh
> Cc1ccc(-c2nc(CN(Cc3c(C)nn(C)c3C)C(C)C)c(C)o2)o1
 : -12.9%, -0.6%
> CN1CCN(CC#CCC(O)(c2ccccc2)C2CCCC2)CC1 (configuration not stated)
 : ., -8.4%

# Next part
COc1ccc(NC(=O)C(C2CC2)n2c(=O)c(-c3ccco3)nc3ccccc32)cc1 (configuration not stated)
  Vaccinia mCherry: ? | VACV Venus inh: -15.5%

COc1ccc(N(C(=O)COc2c(C)cccc2C)S(=O)(=O)c2ccc(Cl)cc2)cc1
  Vaccinia mCherry: -20.9% | VACV Venus inh: 0.6%

O=C(Nc1cccc(-c2cn3cccnc3n2)c1)c1cccs1
  Vaccinia mCherry: -2.7% | VACV Venus inh: 5.2%

COc1ccc(-c2csc(NC(=O)c3ccccc3NS(=O)(=O)c3ccc(F)c(F)c3)n2)cc1
  Vaccinia mCherry: ? | VACV Venus inh: ?

CCN1CCN(C(c2cccs2)C(C)NC(=S)Nc2cccc(C)c2C)CC1 (configuration not stated)
  Vaccinia mCherry: i | VACV Venus inh: -14.6%

O=Nc1c(O)n(Cc2ccc(Cl)cc2)c2ccccc12
  Vaccinia mCherry: -25.6% | VACV Venus inh: -25.5%

CC(=O)OCC(=O)[C@@]12OC3(CCCC3)O[C@@H]1C[C@H]1[C@@H]3CCC4=CC(=O)C=C[C@]4(C)[C@@]3(F)[C@@H](O)C[C@@]12C
  Vaccinia mCherry: -13.9%&-19.8% | VACV Venus inh: ?

COC(=O)c1ccccc1N=Nc1c(N)n[nH]c1N
  Vaccinia mCherry: -10.6% | VACV Venus inh: -7.5%

CCNc1nc(NCc2ccccc2)nc(SCC(N)=O)n1
  Vaccinia mCherry: i | VACV Venus inh: -13.6%

CCc1ccc(NC(=O)CSC2=Nc3ccccc3C3=NC(CC(=O)NCc4cccs4)C(=O)N23)cc1 (configuration not stated)
  Vaccinia mCherry: -27.8% | VACV Venus inh: -21.5%

# An excerpt from above in order of molar mass, smallest number first.
COC(=O)c1ccccc1N=Nc1c(N)n[nH]c1N
  Vaccinia mCherry: -10.6% | VACV Venus inh: -7.5%

O=Nc1c(O)n(Cc2ccc(Cl)cc2)c2ccccc12
  Vaccinia mCherry: -25.6% | VACV Venus inh: -25.5%

CN1CCc2cc(Cl)c(O)cc2[C@@H](c2ccccc2)C1
  Vaccinia mCherry: -13.5% | VACV Venus inh: -13.2%&-4.3%

Cc1ccc(Sc2ccc([N+](=O)[O-])cc2[N+](=O)[O-])nc1
  Vaccinia mCherry: ? | VACV Venus inh: -24.7%

CCNc1nc(NCc2ccccc2)nc(SCC(N)=O)n1
  Vaccinia mCherry: i | VACV Venus inh: -13.6%

O=C(Nc1cccc(-c2cn3cccnc3n2)c1)c1cccs1
  Vaccinia mCherry: -2.7% | VACV Venus inh: 5.2%

CN1CCN(CC#CCC(O)(c2ccccc2)C2CCCC2)CC1 (configuration not stated)
  Vaccinia mCherry: . | VACV Venus inh: -8.4%

CC(=O)c1c(N2CCN(C)CC2)[nH]c(-c2ccccc2)nc1=S
  Vaccinia mCherry: -5.3% | VACV Venus inh: 3.6%

N#Cc1ccsc1NC(=O)C1CCN(S(=O)(=O)c2cccs2)CC1
  Vaccinia mCherry: -11.1% | VACV Venus inh: -10.0%

Cc1ccccc1CN1CCNC(=O)C1CC(=O)NCCN1CCCCC1=O (configuration not stated)
  Vaccinia mCherry: i | VACV Venus inh: -15.5%

O=C(c1cccc(C(F)(F)F)c1)C1CCCN(Cc2ccc(OCCO)cc2)C1 (configuration not stated)
  Vaccinia mCherry: -23.7% | VACV Venus inh: -11.9%

COc1ccc(N2CCN(CCCNC(=O)C3COc4ccccc4C3)CC2)cc1 (configuration not stated)
  Vaccinia mCherry: -11.2%[7.34 µM] | VACV Venus inh: -9.7%[7.34 µM]

COc1ccc(NC(=O)C(C2CC2)n2c(=O)c(-c3ccco3)nc3ccccc32)cc1 (configuration not stated)
  Vaccinia mCherry: ? | VACV Venus inh: -15.5%

CCN1CCN(C(c2cccs2)C(C)NC(=S)Nc2cccc(C)c2C)CC1 (configuration not stated)
  Vaccinia mCherry: i | VACV Venus inh: -14.6%

COc1ccc(Cc2nnc(SC(C)C(=O)Nc3ccc(F)cc3Cl)o2)cc1 (configuration not stated)
  Vaccinia mCherry: -17.4% | VACV Venus inh: -5.6%

COc1ccc(N(C(=O)COc2c(C)cccc2C)S(=O)(=O)c2ccc(Cl)cc2)cc1
  Vaccinia mCherry: -20.9% | VACV Venus inh: 0.6%

COc1ccc(-c2csc(NC(=O)c3ccccc3NS(=O)(=O)c3ccc(F)c(F)c3)n2)cc1
  Vaccinia mCherry: ? | VACV Venus inh: ?

CC(=O)OCC(=O)[C@@]12OC3(CCCC3)O[C@@H]1C[C@H]1[C@@H]3CCC4=CC(=O)C=C[C@]4(C)[C@@]3(F)[C@@H](O)C[C@@]12C
  Vaccinia mCherry: -13.9%&-19.8% | VACV Venus inh: ?

O=C(NCC(F)(F)F)c1cc2c(c(-c3cccc(-c4ccccc4F)c3)n1)[C@@H](CCO)N(C(=O)CC1CC1)C2
  Vaccinia mCherry: -25.2% | VACV Venus inh: -13.1%

# Next results
CSc1ccc(CN(C)C(=O)CNC(=O)c2ccc3c(c2)OCO3)cc1
  Vaccinia mCherry: -14.3% | VACV Venus inh: -0.6%

COc1cc2c(c(OC)c1OC)-c1ccc(O)c(=O)cc1[C@@H](NC(C)=O)CC2
  Vaccinia mCherry: -20.8% | VACV Venus inh: -16.7%

Cc1cc(C)cc(NC(=S)N2CCC(NC(=O)c3ccc(F)cc3)CC2)c1
  Vaccinia mCherry: -27.2% | VACV Venus inh: -18.1%

COc1cccc(Nc2c(Nc3cccc(OC)c3)c(=O)c2=O)c1
  Vaccinia mCherry: -4.4% | VACV Venus inh: 10.3%

COc1ccc(-c2cn3cc(C)ccc3n2)cc1F
  Vaccinia mCherry: -16.0% | VACV Venus inh: -10.1%

O=C(Oc1ccc(-c2cnc3ccccc3n2)cc1)c1cccc([N+](=O)[O-])c1
  Vaccinia mCherry: . | VACV Venus inh: -7.4%

O=C(NC(=S)NC1CCS(=O)(=O)C1)c1ccccc1F (configuration not stated)
  Vaccinia mCherry: -11.5% | VACV Venus inh: 2.0%

COc1ccc(C)cc1NC(=O)C1CCC(CNc2c(N3CCOCC3)c(=O)c2=O)CC1 (configuration not stated)
  Vaccinia mCherry: -0.1% | VACV Venus inh: -14.9%

CCc1ccc(-n2c(=O)c3ccc(C(=O)NCCc4ccccc4)cc3n(Cc3ccccc3C#N)c2=O)cc1
  Vaccinia mCherry: -7.5% | VACV Venus inh: -16.8%

COc1ncnc2c1ncn2CCCNCc1ccccc1
  Vaccinia mCherry: -7.8% | VACV Venus inh: -1.0%

CCOC(=O)N1CCN(CC(=O)NC(=O)Nc2ccc3c(c2)OCCO3)CC1
  Vaccinia mCherry: -16.0% | VACV Venus inh: -14.4%

Cc1ccc(Nc2nc(=O)c3cccnc3s2)cc1
  Vaccinia mCherry: i | VACV Venus inh: -4.1%

CCNC(=O)c1ccc(NC(=O)N2CCCCc3ccccc32)cc1
  Vaccinia mCherry: -9.6% | VACV Venus inh: -10.2%

COc1ccc(C(=O)N2CCN(c3ccccc3)CC2)cc1S(=O)(=O)N1CCCC1
  Vaccinia mCherry: -7.3% | VACV Venus inh: -8.2%

CCN(CC)c1nc(-c2ccc(Cl)cc2)cc(C(F)(F)F)c1C#N
  Vaccinia mCherry: . | VACV Venus inh: -8.5%

Cc1ccc(S(=O)(=O)NCCC(=O)OCn2nnc3ccccc3c2=O)cc1
  Vaccinia mCherry: -11.7% | VACV Venus inh: -2.4%

CCn1c2ccccc2c2cc(NC(=O)C3CCN(S(=O)(=O)c4cccs4)CC3)ccc21
  Vaccinia mCherry: -6.4% | VACV Venus inh: -15.7%

O=C(Nc1ccc(F)c(Cl)c1)C1CCCC1
  Vaccinia mCherry: i[7.34 µM] | VACV Venus inh: -26.1%[7.34 µM]

O=C(NCCc1cccs1)c1ccc(Cn2c(SCc3ccc(F)cc3)nc3cccnc32)cc1
  Vaccinia mCherry: -6.8% | VACV Venus inh: -12.6%

C=CCN=C1CC(C)(C)CC(=O)/C1=C(\O)CCCN1C(=O)c2ccccc2C1=O
  Vaccinia mCherry: -11.0% | VACV Venus inh: -5.3%

O=c1cc(CO)oc(CN2CCN(c3ccccc3)CC2)c1O
  Vaccinia mCherry: -8.1% | VACV Venus inh: -1.1%

COC(=O)[C@H](NC(=O)c1cc(-c2ccccc2)nc2ccccc12)c1ccccc1
  Vaccinia mCherry: -11.5% | VACV Venus inh: -4.9%

CC(C)N=C(NC#N)SCc1ccccc1
  Vaccinia mCherry: -21.9% | VACV Venus inh: -15.7%

O=C(COC(=O)CNC(=O)c1cccc([N+](=O)[O-])c1)NCc1ccco1
  Vaccinia mCherry: i | VACV Venus inh: -4.5%

CN(C)S(=O)(=O)c1ccc(C(=O)Nc2nnc(SCc3ccccc3)s2)cc1
  Vaccinia mCherry: i | VACV Venus inh: -7.0%

CCC(C)(C)n1nnnc1C(c1ccc(N(C)C)cc1)N1CCN(C2CCCCC2)CC1 (configuration not stated)
  Vaccinia mCherry: -12.0% | VACV Venus inh: -14.5%

COC(=O)[C@H](Cc1ccccc1)NC(=O)NCCc1ccc(F)cc1
  Vaccinia mCherry: -11.8% | VACV Venus inh: -5.4%

Cc1ccc(N(CC(=O)N2CCN(c3ccccc3F)CC2)S(=O)(=O)c2c(C)noc2C)cc1
  Vaccinia mCherry: i | VACV Venus inh: -19.8%&-11.8%

COc1ccccc1-c1noc(-c2ccco2)n1
  Vaccinia mCherry: . | VACV Venus inh: -9.4%

O=C(NCc1ccc2c(c1)OCO2)c1ccc2c(c1)C(=O)N(CC1CCCO1)C2=O (configuration not stated)
  Vaccinia mCherry: . | VACV Venus inh: -5.7%

Cc1cc(NC(=O)C(C)C)n(-c2nc3ccccc3s2)n1
  Vaccinia mCherry: i | VACV Venus inh: -15.7%

O=c1[nH]cnc(O)c1C(c1ccc2c(c1)OCO2)c1c(O)nc[nH]c1=O
  Vaccinia mCherry: i | VACV Venus inh: -11.2%

# Screening data: PubChem, National Center for Advancing Translational Sciences (NCATS)

# Compounds were not picked by outcome; overall some 0.87% were active at least once.
